# Rango-impB inh = prevents formation of the Rango-importin beta complex; Rango CFP/YFP FRET sensor + importin beta, 45 min; hit rate 0.031% among 340,000; Potency, µM (titrated, usually from 92.2 µM), without a hit: at the top dose inhibition of complex formation; active = rising FRET ratio curve, often small or poorly fitted; inconclusive = mostly compound fluorescence or quenching in the first reads; inactive = flat curves in all reads;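 note: potency is the fitted concentration of half-maximal effect; 0% = DMSO wells and 100% = buffer wells lacking importin beta; nearly all actives have a fitted effect of over 15% in size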
#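 FRET biosensor Rango (snurportin 1 IBB between N-terminal EYFP and C-terminal Cerulean), 50 nM in PBS/1 mM DTT/0.02% Tween-20/0.1% BSA, preincubated 5 min RT with compound; 0.125 microM importin beta added, 45 min RT, CFP/YFP FRET ratio read.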
# GLA inh pH 4.5 = blocks human alpha-galactosidase A at pH 4.5. P06280. purified enzyme, 4-MU-alpha-Gal fluorescence, pH 4.5. activity change, negative = inhibition, % at 105 µM. 230,000 tested, under 10 active. AID 1467; inconclusive = small, poorly fitted or top-dose-only inhibition, or a rising curve; inactive = flat fitted curve, though single readings scatter; no compound was filed as active;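 note: 0% = full activity with enzyme and -100% = basal without enzyme; dose as in the result columns while the protocol names 77 µM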
# Target sequence (P06280 whole entry, looked up): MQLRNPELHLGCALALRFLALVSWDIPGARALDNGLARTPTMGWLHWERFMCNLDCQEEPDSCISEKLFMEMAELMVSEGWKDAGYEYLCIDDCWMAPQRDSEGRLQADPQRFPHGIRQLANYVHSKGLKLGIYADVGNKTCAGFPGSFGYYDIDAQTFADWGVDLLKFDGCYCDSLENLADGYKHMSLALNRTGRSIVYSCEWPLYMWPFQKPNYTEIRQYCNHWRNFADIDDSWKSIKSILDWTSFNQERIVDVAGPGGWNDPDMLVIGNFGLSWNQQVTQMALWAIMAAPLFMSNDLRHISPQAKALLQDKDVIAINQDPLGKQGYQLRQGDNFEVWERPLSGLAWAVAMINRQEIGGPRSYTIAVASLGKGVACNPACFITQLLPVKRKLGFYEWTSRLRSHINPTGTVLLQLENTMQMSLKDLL
# miR-21 reporter = miR-21 reporter, rising signal; 340,000 tested, under 10 active; HeLa miR-21 FLuc reporter, luciferase, 48 h; Potency, µM (titrated, usually from 38.3 µM), inactives show at the highest dose reporter change, positive = more light; AID 2288; active = well fitted rising curve with a large enough effect; inconclusive = small, poorly fitted or top-dose-only effect; inactive = no such curve, though single readings can be large or run the other way;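 note: % of control where 0% means no effect; miR-21 action dims this reporter so a rising signal means less miR-21 action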
#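 HeLa miR-21-FLuc reporter line, endogenous miR-21; 2000 cells/well in DMEM/10% FBS; compound titration up to ~40uM final, 48 h, 37 degree Celsius; luciferase detection reagent, 15 min lysis, CCD luminescence.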
# Rango dissoc inh = inhibitors of RanGTP-induced Rango-importin beta complex dissociation. hit rate 0.071% among 340,000. Biochemical FRET Rango-importin beta, RanGTP-induced dissociation. Potency, µM (titrated, usually from 46.1 µM), for the others: at the top dose activity change, negative = inhibition; active means falling FRET ratio curve, often poorly fitted, with flat reads before Ran was added; inconclusive means other falling curves, or compound fluorescence or quenching; inactive means flat or rising ratio curve;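 note: potency is the fitted concentration of half-maximal effect; % of control where 0% means no effect; nearly all actives have a fitted effect of over 45% in size; -100% = wells without RanGTP and RCC1; the record marks most hits as doubtful in a second field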
#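 Rango (0.1 uM)–importin beta (0.25 uM) complex; RanGTP-RCC1 trigger; 45 min RT; CFP/YFP FRET read.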
# * marks the source's active call; other numbers are inactive results; ? = inconclusive; / = not tested or not shown; & = joins results of further samples. The list is partial, so the mix of outcomes need not match the whole.
entry	SMILES	Rango-impB inh	GLA inh pH 4.5	miR-21 reporter	Rango dissoc inh
1	O=C(/C=C/c1cccc([N+](=O)[O-])c1)N1CCN(c2ccccc2F)CC1	-0.5%	-6.2	-6.5%	-7.3%
2	Cc1cc(=O)n2ccccc2c1C#N	-4.9%	?	-0.3%	?
3	CC(C)c1ccc(NC(=O)CCNS(=O)(=O)c2cccc3nsnc23)cc1	-4.1%	1.3	6.4%&-1.7%	0.5%
4	O=C(NNC(=O)C1CC=CCC1)c1ccccc1Br (centres undefined)	?	/	-18.6%	1.2%
5	CC(=O)OCC(=O)C1(O)CCC2C3CC(C)C4=CC(=O)C=CC4(C)C3(F)C(O)CC21C (centres undefined)	-4.6%	/	/	11.8%
6	O=C(CN(C(=O)CCC(=O)Nc1ccccn1)c1cccc(F)c1)NCc1ccc(F)cc1	-5.9%	/	0.7%	-1.3%
7	O=C(NCCCN1CCCC1=O)c1cccc(S(=O)(=O)N2CCN(c3ccc(F)cc3)CC2)c1	3.2%	/	5.6%	-8.1%
8	CCc1ccc(N2C(=O)c3cc(N4CCOCC4)c([N+](=O)[O-])cc3C2=O)cc1	/	-3.5	0.9%	/
9	CCOc1ccc2ccccc2c1C(=O)Nc1cc(=O)n(C)c(=O)n1C	-0.9%	-8.0	-2.1%	10.7%
10	Cc1cc(-c2nnc(SCC(=O)Nc3ccccc3C)n2N)n[nH]1	?	/	-2.4%	-7.5%
11	O=S1(=O)NC(C2CC2c2ccccc2)CCO1 (centres undefined)	-1.9%	/	-2.1%	5.6%
12	COCCCNC(=O)CSc1nc2ccc(N3CCOCC3)cc2c(=O)n1CCc1ccccc1	-2.2%	/	/	4.7%
13	CC(O)C1C(=O)OC2(C)CC(C)(C)NC(=S)N12 (centres undefined)	5.6%	8.4	-4.9%	6.4%
14	Cc1cc(-c2ccc(C)c(S(=O)(=O)NCc3ccc(Br)cc3)c2)on1	2.3%	/	28.4%	6.2%
15	O=S1(=O)CC/C(=N\Nc2ccccc2)c2ccsc21	4.9%	2.6	-22.9%	-7.8%
16	CC(C)(C)C1(C)OC(C(=O)NC2CCCCC2)C(C(=O)NC2CCCCC2)O1 (centres undefined)	3.9%	2.9	-1.1%	-9.0%
17	O=C(c1ccco1)N1CCN(c2ncnc3c2nnn3Cc2ccccc2Cl)CC1	0.0%	-14.0	11.4%	3.7%
18	O=c1[nH]c(/C(Cl)=C/c2cccc(F)c2)nc2cc(C(F)(F)F)ccc12	?	-8.5	0.1%	3.5%
19	Cc1nc(-c2ccccc2)nc(Cl)c1Cl	-0.5%	-3.7	2.7%	-7.2%
20	CC(C)c1ccc(NC(=O)C2CCCN(S(=O)(=O)c3cnc[nH]3)C2)cc1 (centres undefined)	-5.9%	-4.2	-13.8%	21.6%
21	CCC1(CC)Cc2ccccc2-c2nc(-c3ccccc3)oc(=O)c21	4.2%	4.5	-1.2%	-23.9%
22	Cn1c(N/N=C/c2ccccc2)nc2sc3c(c2c1=O)CCC3	1.7%	-1.6	-21.5%	0.2%
23	CC1(C)CC2CC(C)(CN2S(=O)(=O)c2ccc(C(=O)Nc3cc(S(=O)(=O)N4CCOCC4)ccc3Cl)cc2)C1 (centres undefined)	4.5%	-2.6	13.9%	-12.4%
24	COc1ccc(/C(C)=N/NC(=O)CNC(=O)Cc2ccccc2)c(OC)c1	-3.1%	7.0	0.2%	5.0%
25	Cc1nc([N+](=O)[O-])cn1CC(=O)c1ccc(Cl)cc1	1.8%	/	1.9%	12.0%
26	Cc1cc(C)cc(NC(=O)NCc2ccccn2)c1	-7.0%	/	-4.2%	-0.9%
27	C=CCOC(=O)CSCC(NC(=O)OC(C)(C)C)C(=O)OCC (centres undefined)	-0.4%	1.2	20.9%	-2.5%
28	O=C(Nc1ccccc1)c1ccccc1O	-0.5%	4.7	-34.3%	11.6%
29	CCOc1ccc(N2C(=O)c3ccc(C(=O)OCC(=O)N(CC)C4CCS(=O)(=O)C4)cc3C2=O)cc1 (centres undefined)	-3.6%	-23.4	0.6%	1.5%
30	COc1cc(NS(=O)(=O)c2cn(C)cn2)cc(OC)c1OC	-2.5%	/	-3.2%	3.7%

# 2 entries from above, set out differently:
[29] CCOc1ccc(N2C(=O)c3ccc(C(=O)OCC(=O)N(CC)C4CCS(=O)(=O)C4)cc3C2=O)cc1 (centres undefined)
  Rango-impB inh: -3.6%
  GLA inh pH 4.5: -23.4
  miR-21 reporter: 0.6%
  Rango dissoc inh: 1.5%
[26] Cc1cc(C)cc(NC(=O)NCc2ccccn2)c1
  Rango-impB inh: -7.0%
  GLA inh pH 4.5: /
  miR-21 reporter: -4.2%
  Rango dissoc inh: -0.9%

# (continued)
entry	SMILES	Rango-impB inh	GLA inh pH 4.5	miR-21 reporter	Rango dissoc inh
31	CC(C)c1ccc(N(C(=O)c2snc(C(N)=O)c2N)C(C(=O)NC2CCCC2)c2ccncc2)cc1 (centres undefined)	0.6%	/	-14.8%	-1.7%
32	C=CCC1(CC=C)CCCN1C(=O)c1cc(COc2ccccc2SC)on1	4.1%	/	3.2%	-11.3%
33	COCCNC(=O)c1ccc(C)cc1C	-3.7%	-20.6	-5.7%	-13.8%
34	CCOc1ccccc1OCCCC(=O)Nc1nc2ccccc2[nH]1	-3.4%	-4.9	-0.2%	-0.8%
35	Cc1ccc(CNC(=O)C2CCN(C(=O)Nc3ccc(C)cc3)CC2)cc1	8.0%	/	-0.2%	3.9%
36	Cc1cc(Cl)ccc1OCC(=O)N[C@@H](Cc1ccccc1)c1nc2ccccc2[nH]1	4.6%	1.0	-3.1%	-2.9%
37	CN1CCCN(C(=O)CNC(=O)Cc2ccccc2)CC1	-1.3%	4.1	-0.3%	-3.2%
38	COC(=O)CCCCCC(CCC(=O)OC)NC(C)=O (centres undefined)	-4.9%	8.6	-0.4%	-3.8%
39	Cc1ccc(S(=O)(=O)NCC(=O)OCC(=O)Nc2ccc3c(c2)OCCO3)cc1	-0.2%	/	/	5.3%
40	COc1ccc(S(=O)(=O)Nc2cccc3c2O[C@@H](CN(C)CC2CC2)[C@@H](C)CN([C@@H](C)CO)C3=O)cc1	0.0%	/	/	7.7%
41	Cc1ccc(C(CC(=O)O)Nc2nc(N3CCOCC3)nc(N3CCOCC3)n2)cc1 (centres undefined)	-0.6%	6.2	-8.1%	0.5%
42	CCCNC(=O)c1cc(Cl)c(NC(=O)C2=C(C)OCCS2)cc1OC	1.2%	/	-19.3%	0.3%
43	COc1ccccc1-c1nnc(SC(C)C(=O)N2CCOCC2)o1 (centres undefined)	-3.3%	/	/	11.9%
44	COCCC1CCCCN1C(=O)c1ccc(OC)c(OC2CCN(C(C)=O)CC2)c1 (centres undefined)	1.0%	/	/	7.8%
45	CCN(CC(=O)Nc1ccc(OC)cc1)C(=O)c1ccc(N2CCCC2=O)cc1	3.7%	/	/	9.6%
46	Cc1cccc(OCC(=O)N2CCC(c3ccccc3)C2)c1 (centres undefined)	0.3%	-3.3	-50.4%	3.5%
47	O=C(CSc1nc(C2CC2)nc2c1cnn2-c1ccccc1)Nc1c[nH]c(=O)[nH]c1=O	?	-3.5	-4.1%	-7.5%
48	COCCNC(=S)NNC(=O)c1ccco1	?	4.0	-8.8%	-7.1%
49	CC(=O)Nc1ccc2c(c1)OCCOCCOc1cc(NC(C)=O)ccc1OCCOCCOCCO2	/	0.6	-5.4%	/
50	Cc1ccc(NC2CCCN(C(=O)CCC3=NNC(=O)CC3)C2)cc1C (centres undefined)	0.7%	/	1.4%	3.1%
51	CCCCN1C(N)=NC[C@@H]1C(C)O (some centres undefined)	1.1%	/	/	1.2%
52	COc1ccc(S(=O)(=O)NNC(=O)c2cc3c4ccccc4n(C)c3s2)cc1	-5.4%	-3.1	-2.0%	17.9%
53	Cc1ccc(NS(=O)(=O)c2cc(NC(=O)c3cc4c(s3)CCCC4)ccc2C)c(C)c1	-2.1%	-7.0	-9.2%	5.5%
54	COc1ccc(NC(=O)C23CC4CC(C2)CC(n2cnc(Br)n2)(C4)C3)c(C)c1	-0.3%	-1.4	0.2%	-9.2%
55	N#C/C(=C\c1ccc(N2CCOCC2)o1)C(=O)N1CCOCC1	?	-15.7	-13.3%	?
56	COc1ccc(S(=O)(=O)N2CCC(C(=O)NCC3CCCO3)CC2)cc1 (centres undefined)	-0.2%	7.5	-3.4%	-10.2%
57	COc1ccc(S(=O)(=O)N2CCc3ccccc32)cc1C(=O)OCC(=O)c1c(N)n(C)c(=O)n(C)c1=O	1.1%	6.5	-6.9%	-0.5%
58	CCOC(=O)CC1COCCN1Cc1cn[nH]c1-c1cc(OC)c(OC)c(OC)c1 (centres undefined)	-3.5%	-0.4	0.7%	1.2%
59	O=C(CCl)N1c2ccccc2OCC1c1ccccc1 (centres undefined)	-1.1%	4.6	-8.5%	16.0%
60	CN(C)CCCNC(=O)c1cc(S(=O)(=O)N2CCOCC2)ccc1F	1.5%	-1.3	-2.1%	0.7%
61	CC(=O)NCCn1c(SCC(=O)NCC2CCCO2)nc2ccccc2c1=O (centres undefined)	-5.1%	-1.9	0.6%	9.8%
62	CCC/C(=C1/c2ccccc2C(=O)N1c1ccccc1)c1ccc2[nH]ccc2c1	1.9%	/	/	41.2%
63	O=c1[nH]c2ccc(Cl)cc2[nH]1	1.9%	/	/	-5.8%
64	CC1CCCC(NC(=O)C2CCCN2S(=O)(=O)c2cccc3nsnc23)C1C (centres undefined)	-2.4%	1.9	0.0%	47.0%
65	NC(=O)[C@H]1CC2(CC(c3cccc(NC(=O)COc4ccc(Cl)cc4)c3)=NO2)CN1C(=O)c1ccccc1C(=O)c1ccccc1 (some centres undefined)	-4.5%	0.4	?	-8.2%
66	O=C(NCCCn1ccnc1)c1cccc(S(=O)(=O)N2CCCCCC2)c1	-0.2%	4.5	7.7%	-9.1%
67	CCCCOc1ccc(C(=O)Nc2ccc(N3CCN(C(=O)C(C)C)CC3)cc2)cc1	?	-4.6	16.0%	9.8%
68	CS(=O)(=O)N(Cc1ccc(C(=O)NCCSc2ccccn2)cc1)c1ccccc1	-0.6%	-1.9	-12.8%	-12.8%
69	O=C(c1cc(-c2cccc(Cl)c2)on1)N1CCCCCC1	0.0%	/	-79.1%	-3.2%
70	Cc1ccc(NC(=O)C(=O)NCCN2CCN(S(=O)(=O)c3ccccc3)CC2)cc1C	-0.8%	1.2	-0.6%	2.6%
71	CCCOC(=O)c1c(-c2ccccc2)nc(CC)c(C(=O)SCC)c1CCC	-2.3%	0.3	/	-9.1%
72	N#Cc1ccc2[nH]cc(CCO)c2c1	-4.5%	/	-8.5%	0.8%
73	Cc1ccc(N(Cc2ccc(C(=O)NN=C3CCN(C)CC3)cc2)S(C)(=O)=O)cc1C	-0.3%	1.5	-13.5%	-0.3%
74	CNC(=S)N(CCc1c(C)[nH]c2ccc(F)cc12)Cc1ccco1	-4.2%	/	2.9%	21.9%
75	COc1ccc(C(=O)O)cc1S(=O)(=O)N1CCSCC1	-0.2%	/	-0.9%	-2.9%
76	COc1ccc(Nc2n[nH]c(C)c2[N+](=O)[O-])cc1	1.1%	-3.1	-52.4%	-0.3%
77	Cc1ccc(S(=O)(=O)Nc2ccc3c(c2)c2c(n3S(=O)(=O)c3ccc(C)cc3)CCCC2=O)cc1	-5.7%	-2.7	0.7%	-2.3%
78	Cc1ccc([N+](=O)[O-])cc1S(=O)(=O)N1CCN(C)CC1	0.3%	6.4	0.4%	-0.2%
79	Cc1cc(=O)[nH]c(-n2[nH]c3c(c2=O)CCCC3)n1	?	-23.9	0.2%	?
80	COc1ccc(OCC(=O)NNC(=O)c2cccc(O)c2)cc1	1.8%	-7.3	-0.1%	-6.7%

# More compounds
entry	SMILES	Rango-impB inh	GLA inh pH 4.5	miR-21 reporter	Rango dissoc inh
81	CC(=O)Nc1cc(S(=O)(=O)Nc2ccc(C)cc2)c(C)cc1C	4.1%	6.0	-0.6%	1.2%
82	Cc1cc(N2CCN(c3ccccc3)CC2)n2cc(-c3ccccc3)nc2n1	-2.3%	-23.3	5.8%	-0.9%
83	CCOC(=O)N1C(=O)NC(=O)C1c1ccccc1 (centres undefined)	-3.4%	/	/	-4.2%
84	Cc1ccc(Cl)cc1NC(=O)N[C@@H](C)C(=O)O	6.5%	2.0	4.6%	3.1%
85	COc1cccc(OC)c1NC(=O)CN1CCC(NC(=O)c2cccc(F)c2)CC1	5.1%	-4.5	-3.8%	16.2%

# From PubChem BioAssay
